Screening results as filed in PubChem.
Vaccinia mCherry – qHTS for Stage-Specific Inhibitors of Vaccinia Orthopoxvirus: mCherry Reporter Primary qHTS; Vaccinia virus mCherry reporter infection, fluorescence; about a quarter of the inactives have no number; Potency, µM (top dose mostly 36.5 µM), for inactives: at the top dose activity change, negative = inhibition, usual class: inhibitors; 0.63% of 310,000 active; active = well fitted inhibition curve with a large enough effect; inconclusive = small, poorly fitted or top-dose-only effect; inactive = no such curve, though single readings can be large or run the other way; tested in A549 cells; also: nearly all actives have a fitted effect of over 35% in size; inactives centre near -10
VACV Venus inh – qHTS for Stage-Specific Inhibitors of Vaccinia Orthopoxvirus: Venus Reporter Primary qHTS; Vaccinia virus Venus reporter expression, fluorescence; Potency, µM (highest dose often 36.5 µM), for the others: top-dose activity change, negative = inhibition, hits mostly inhibitors; 0.46% of 330,000 active; AID 720580, 2013; active means well fitted inhibition curve with a large enough effect; inconclusive means small, poorly fitted or top-dose-only effect; inactive means no such curve, though single readings can be large or run the other way; tested in A549 cells; also: nearly all actives have a fitted effect of over 30% in size; inactives centre near -10
An asterisk follows results filed as active; i = inactive; ? = inconclusive; nt = not tested or not shown; [ ] = dose if it differs, or a comment. % is scaled to controls: 0 for no effect and ±100 for the full control effect; potency is read from the fitted curve at half-maximal effect.

Below each SMILES – Vaccinia mCherry, VACV Venus inh
Cc1c(NC(=O)c2ccc(S(=O)(=O)N3CC(C)OC(C)C3)cc2)c(=O)n(-c2ccccc2)n1C (centres undefined)
    i, -14%
O=[N+]([O-])c1cccnc1N1CCN(c2ccc(F)cc2)CC1
    i, -1%
Cc1ccc(NC(=O)CN2CCCN(S(=O)(=O)c3ccc(Br)s3)CC2)cc1
    4%, ?
COc1ccc(C(=O)NC(=S)Nc2ccc3[nH]c(=O)[nH]c3c2)cc1
    -11%, 4%
CCCNC(=O)C1(C)CCCN(Cc2ccc(C(F)(F)F)cc2)C1 (centres undefined)
    17%, -7%
Cc1ccc(S(=O)(=O)Nc2ccc3oc(=O)sc3c2)c(C)c1
    nt, -14%
Cc1ccn2c(=O)nc(SCC(=O)Nc3cc(C)on3)nc2c1
    i, -3%
O=C(O)C1CCCCC1C(=O)Nc1cccc(C(=O)N2CCCCC2)c1 (centres undefined)
    -2%, -11%
COC(=O)c1ccc(C2C(C#N)=C(N)Oc3cc(O)ccc32)cc1 (centres undefined)
    i, -7%
COc1ccc(C(=O)N2CC3(C)C4CCC3(C)C2(C#N)C4)cc1OC (centres undefined)
    -1%, -14%
CCc1nnc(NC(=O)CSc2nccn2-c2cc(C)cc(C)c2)s1
    -12%, ?
O=[N+]([O-])c1ccc(-c2n(-c3ccccn3)c3ccccc3[n+]2-c2ccccn2)cc1
    -20%, -26%
CCOc1ccccc1NC(=O)C(C)N(c1ccccc1)S(C)(=O)=O (centres undefined)
    -9%, -8%
CCOc1ccccc1NC(=O)C(=O)CC(=O)c1ccc(OC)cc1
    -4%, -11%
COc1ccc(S(=O)(=O)N2CCOC23CCN(S(=O)(=O)c2cc(F)ccc2F)CC3)cc1
    -20%, -7%
N#CC(C(=O)NCc1ccccc1)c1nc2ccccc2nc1N1CCCC1 (centres undefined)
    nt, -10%
O=C(Nc1cccc(C(F)(F)F)c1)c1cc(-c2ccc3c(c2)OCCO3)on1
    -23%, -5%
COc1ccc(CCN=C(N)C(C)c2ccccc2)cc1OC (centres undefined)
    -12%, -3%
CCc1c(C)nc(SCC(=O)Nc2cccc(Br)c2)[nH]c1=O
    i, -12%
O=[N+]([O-])c1ccccc1NCc1ccccc1Cl
    -14%, -1%
CC(C)(CNC(=O)c1ccc(Br)o1)CNC(=O)c1ccc(Br)o1
    -11%, -9%
COc1cc(NC(=O)Cn2c(-c3ccccc3)cc(C(C)=O)c2C)cc(OC)c1
    -11%, -3%
COC1OC(CO)C(N=C(C)C)C1O (centres undefined)
    -18%, -12%
CN1CCN(CC(=O)Nc2ccccc2[N+](=O)[O-])CC1
    -8%, -3%
Cn1c(=O)c(C(=O)c2ccccc2)nc2ccccc21
    nt, -26%
Cc1cc(=O)[nH]c(SCC(=O)N2c3ccccc3CC2C)n1 (centres undefined)
    nt, -2%
O=C1CCC(C(=O)NCCCn2ccnc2)N1 (centres undefined)
    -5%, 13%
CC(C)c1nc(C(=O)N2CCCC(CCC(=O)N(C)CCc3ccccn3)C2)cs1 (centres undefined)
    -6%, -13%
CC(C)Cn1cnc2c1c(=O)n(CC(=O)NN)c(=O)n2Cc1ccccc1
    -11%, -8%
CC12CCC(C(=O)O)(C/C1=N\O)C2(C)C (centres undefined)
    -9%, -7%
Cc1ccc(S(=O)(=O)n2nc(-c3ccco3)nc2NCc2ccc(N(C)C)cc2)cc1
    -9%, 1%
CC1Oc2ccccc2N(CC(=O)NCCCN2CCOCC2)C1=O (centres undefined)
    -13%, 9%
CC1CCCN(Cc2c(O)ccc3c(=O)c(Oc4ccc(C(C)(C)C)cc4)c(C(F)(F)F)oc23)C1 (centres undefined)
    7%, 24%
CCOC(=O)c1ccccc1NC(=O)c1cc2c(=O)oc3ccc(C)cc3c2s1
    0%, 2%
OC(c1nc2ccccc2[nH]1)C(O)c1nc2ccccc2[nH]1 (centres undefined)
    -14%, -2%
O=C1OC(Cc2ccccc2)C(c2ccccc2)C1=O (centres undefined)
    -10%, 4%
CCOc1ccc(CCNC(=O)C2CCN(c3nn4c(=O)cc(C)nc4s3)CC2)cc1OCC
    nt, -15%
CCOC(=O)[C@H]1[C@H]2COc3ccc(Br)cc3[C@@H]2N2C(=O)CN(Cc3ccc(C)cc3)C(=O)[C@@]12C
    -1%, ?
CC(C)CNC(=O)COc1ccc(Sc2ccc(OCC(=O)NCC(C)C)cc2)cc1
    i, -13%
CC1(c2ccccc2)CC(C)(C)N2C(=O)Cc3cccc1c32 (centres undefined)
    i, -15%
Cc1ccc2occ(/C=N/NC(=O)c3ccccc3C)c(=O)c2c1
    -13%, -10%
O=C(O)c1ccc2c3c(cccc13)C(=O)N(c1ccccc1)C2=O
    i, 3%
O=C(CCNC(=O)N1CC(=O)Nc2ccccc21)Nc1ccc(Cl)cc1
    -19%, -12%
CCc1ccc2c(c1)NC(=O)C2(C)Cc1ccc(Cl)s1 (centres undefined)
    0%, -3%
CC1(C(=O)Nc2cccc(-n3cnnn3)c2)Cc2ccccc2C(=O)O1 (centres undefined)
    i, -18%
C=CCNC(=S)NCc1ccc(CNC(=S)NCC=C)cc1
    -3%, -22%
O=P(c1ccccc1)(c1ccccc1)c1nc(-c2ccccc2)oc1N1CCOCC1
    -5%, -18%
CCCN1C(=O)c2ccccc2NC1c1ccc(OC)c(COc2ccc([N+](=O)[O-])c(C)c2)c1 (centres undefined)
    14%, -20%
CCOC(=O)C1(C)/C(=N/Nc2cccc(Cl)c2)C(=O)C(=O)N1c1ccccc1 (centres undefined)
    nt, -27%
Cc1ccc(Nc2c(-c3ccc(N(C)C)cc3)nc3ccccn23)cc1
    -29%, -8%

New compounds follow
Below each SMILES – Vaccinia mCherry, VACV Venus inh
COc1ccc(CCNC(=O)C(=O)NCC2CCCN2S(=O)(=O)c2ccc(OC)cc2)cc1 (centres undefined)
    -1%, -19%
Cc1cc(C)c2cc(C#N)c(N3CCNCC3)nc2c1
    -10%, -21%
CCCCn1cnc2c(SCc3ccccc3F)nc(N)nc21
    i, -15%
Cc1cccc(C(=O)N2CCCC(CCC(=O)N3CCN(c4ccccn4)CC3)C2)c1 (centres undefined)
    i, -16%
CC(=O)Nc1ccc(NC(=O)C2Cc3c(-c4cccc(F)c4)ccnc3O2)cc1 (centres undefined)
    22%, -9%
N#Cc1cccc(NC(=O)COC(=O)c2ccc[n+]([O-])c2)c1
    i, -10%
CNC(=O)COC(=O)c1ccccc1C(=O)c1ccc(Cl)c([N+](=O)[O-])c1
    ?, ?
CC(NC(=O)c1cccc(N2CCCC2=O)c1)c1ccc2c(c1)OCCO2 (centres undefined)
    nt, -7%
CCNc1nc(NC(C)CC)nc(Oc2ccc(=O)[nH]n2)n1 (centres undefined)
    i, -10%
C[C@H]1CN([C@@H](C)CO)C(=O)c2cccc(NS(=O)(=O)c3ccc(Cl)cc3)c2O[C@@H]1CN(C)CC1CCCCC1
    i, -17%
Cc1ccccc1CNC(=O)C(=O)NCC(c1cccs1)S(=O)(=O)c1cccs1 (centres undefined)
    -19%, -12%
COc1cccc(CNC(=O)[C@@H]2CCCN2C(=O)[C@@H]2CCCN2C(=O)c2cccc(OC)c2)c1
    -4%, -1%
CCN([C@H](CO)C(C)C)S(=O)(=O)c1ccccc1Br
    i, 3%
COc1cc2c(cc1OC)C(Cc1ccc(O)cc1)NCC2 (centres undefined)
    -15%, -7%
O=C(COn1nnc2ccc(Cl)cc21)NCc1ccccc1
    nt, -18%
Cc1ccccc1NC(=O)CCN1C(=O)c2ccccc2Sc2ncccc21
    -19%, -9%
Cc1ccc(C2=C/C(=C/c3cccnc3)C(=O)O2)c(C)c1
    -1%, -10%
c1ccc2c(Nc3nc(-c4ccncc4)nc4ccccc34)cccc2c1
    -19%, -28%
CC1=C(C(=O)OCc2ccccc2)C(c2ccccc2Cl)NC(=O)N1CCCC(=O)O (centres undefined)
    i, -7%
CCCS(=O)(=O)N1CCCC(C(=O)Oc2ccc(Cl)cc2)C1 (centres undefined)
    i, -10%
COc1cc(/C=N/O)c(Br)cc1OCC(=O)Nc1ccccc1C
    -3%, -28%
S=C(NC1CCCCC1)N1CCN(c2ccccn2)CC1
    -9%, -12%
COc1ccc(Nc2nc3ccccc3n3cnnc23)cc1
    -14%, -12%
CCOc1ccc(N/C(SCc2cccc([N+](=O)[O-])c2)=C(/C#N)C(N)=O)cc1
    -20%, -12%
CCOc1cc(/C=C2/NC(=O)NC2=O)cc(Br)c1OCc1ccc(C(=O)O)cc1
    -2%, 6%
Oc1cc(Cl)ccc1Oc1ccc(Cl)cc1Cl
    -26%, -24%
CCCC(=O)Nc1ccc2nc(SCC(=O)Nc3nccs3)sc2c1
    -9%, -1%
CCSC1=C(C#N)C(c2ccc(F)cc2)CC(=O)N1 (centres undefined)
    -3%, -5%
NC1=NC(c2cccc(Cl)c2)N(CCc2ccc(F)cc2)C(N)=N1 (centres undefined)
    -7%, -18%
Cc1nc(C(F)(F)F)nc(Nc2ccc(Br)cc2)c1C#N
    nt, -26%
COC(=O)[C@@H]1CCCN1Cc1ccc2c(c1)CN(Cc1ccc3c(c1)OCCO3)CCO2
    -15%, -11%
Cc1ccsc1C(=O)OCc1nnc(-c2ccccc2)o1
    -15%, -10%
COc1ccc(C)cc1NC(=O)Cn1c(=O)ccc2cc(S(=O)(=O)N3CCCC3)ccc21
    -2%, 0%
Cc1cc(C(=O)CN2CCN(CC(=O)Nc3cccc(F)c3)CC2)c(C)n1C1CC1
    i, -7%
COc1cc(NC(=S)NCc2ccc(S(N)(=O)=O)cc2)c(OC)cc1Cl
    -18%, -5%
NS(=O)(=O)c1cccc(NC(=O)CSc2nn(-c3ccccc3)c(=S)s2)c1
    ?, ?
Nc1cccc2cccc([N+](=O)[O-])c12
    -16%, 28%
O=C(NCc1ccco1)C1CCN(c2nnc(-n3cccc3)s2)CC1
    i, -5%
O=C(Nc1ccc(OC(F)F)cc1)c1cc(S(=O)(=O)N2CCOCC2)ccc1F
    -16%, -17%
CCS(=O)(=O)n1nc(-c2ccc(Cl)cc2)nc1N
    -24%, -12%

6 entries picked at random from the list so far:
Below each SMILES – Vaccinia mCherry, VACV Venus inh
O=C(NCc1ccco1)C1CCN(c2nnc(-n3cccc3)s2)CC1
    i, -5%
Cc1ccsc1C(=O)OCc1nnc(-c2ccccc2)o1
    -15%, -10%
COC(=O)[C@@H]1CCCN1Cc1ccc2c(c1)CN(Cc1ccc3c(c1)OCCO3)CCO2
    -15%, -11%
Cc1cc(C(=O)CN2CCN(CC(=O)Nc3cccc(F)c3)CC2)c(C)n1C1CC1
    i, -7%
COc1cc(NC(=S)NCc2ccc(S(N)(=O)=O)cc2)c(OC)cc1Cl
    -18%, -5%
Nc1cccc2cccc([N+](=O)[O-])c12
    -16%, 28%

The list goes on.
Below each SMILES – Vaccinia mCherry, VACV Venus inh
CSc1ccc(CCNC(=O)c2cnc3c(C)cccn3c2=O)cc1
    -2%, -1%
Cn1c(=O)c2cc(S(=O)(=O)Nc3cccc(F)c3)ccc2n(C)c1=O
    -21%, -9%
O=C(Nc1c2c(nn1-c1ccccc1)CS(=O)(=O)C2)c1ccc2c(c1)OCO2
    i, -11%
C=CCc1ccccc1OCC(O)CN1CCN(c2ccccc2)CC1 (centres undefined)
    -13%, -5%
COc1ccc(Cl)cc1NC(=O)CN(C)C(=O)C1CCN(C(=O)Nc2ccccc2)CC1
    -4%, -18%
Cc1ccc(C(=O)N/C(=C\c2ccc(Br)cc2)c2nc(=S)[nH][nH]2)cc1
    -8%, ?
O=C(NCC1CCCO1)C1CCN(S(=O)(=O)N2CCCC2)CC1 (centres undefined)
    -14%, -3%
O=C1/C(=C\c2ccc(-c3ccccc3Cl)o2)SC(=S)N1CC1CCCO1 (centres undefined)
    -13%, -1%
COc1ccc(OC)c(C(c2nnnn2C2CCCC2)N2CCN(c3ccccc3F)CC2)c1 (centres undefined)
    nt, -22%
Cc1cc(C)c2c(-n3cccc3)c(C(=O)NCc3cccc(F)c3)sc2n1
    -8%[7.34 µM], -6%[7.34 µM]
CC(C)(C)C(=O)O[C@H]1CC[C@@]2(C)C(=CC(=O)C3C2CC[C@]2(C)C(=O)[C@@H](F)CC32)C1 (some centres undefined)
    -17%, -5%
COc1ccc(CCNc2oc(-c3cccc4ccccc34)nc2P(=O)(OC)OC)cc1OC
    -25%, -13%
O=C(Cc1ccc(Cl)cc1)NCCN1CCN(C(=O)Cc2ccc(Cl)cc2)CC1
    -11%, -6%
COc1ccnc(Nc2ccc(C)c(C)c2)c1C#N
    -3%, -3%
Cc1c(CC(=O)O)c(=O)oc2c(C)c3occ(-c4ccccc4)c3cc12
    -28%, -6%
O=C(Cn1cnc2c(oc3ccccc32)c1=O)NCc1ccccc1
    6%, -1%
C[C@@H]1CN([C@@H](C)CO)C(=O)c2cc(N(C)C)ccc2O[C@@H](C)CCCCO[C@@H]1CN(C)S(=O)(=O)c1cccs1
    -32%, -22%

Complete entries as entered above. Values in the order: Vaccinia mCherry | VACV Venus inh
`Cc1c(CC(=O)O)c(=O)oc2c(C)c3occ(-c4ccccc4)c3cc12` as listed: -28% | -6%
`COc1ccnc(Nc2ccc(C)c(C)c2)c1C#N` as listed: -3% | -3%
